Screening data as filed in PubChem BioAssay.
total CFTR = compounds raising F508del-CFTR protein level – cell-based, HeLa F508del-CFTR, immunofluorescence, viability, primary screen (AID 1224863); calls, or highest fold increase where a dose series was run; hit rate 0.1% among 10,000; HeLa F508del-CFTR, immunofluorescence total CFTR, 24 h; by the record results were divided by relative cell number; some inactives read as strong as hits; in the data nearly all actives have a first-pass fold increase above 1.5; a few of its hits are not listed in these tables;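 note: total CFTR protein by anti-CFTR immunofluorescence in fixed cells; first pass at 25 µM or 10 µg/mL by library and series up to twice that; 1 = untreated cells; first-pass hits also needed half or more of the cells alive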
total CFTR fold 25 µM = also measured in total CFTR; calls as there; fold increase; measured here: primary screen single dose 25 uM; library dosed in µM
total CFTR fold 10 ug/mL = second read-out of total CFTR, no call of its own (marks repeat the call); fold increase; measured here: primary screen 10 ug/mL
total CFTR viability 25 µM = also measured in total CFTR; calls as there; viability, %; measured here: primary viability 25 uM; library dosed in µM;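 0% = killed and 100% = untreated cells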
total CFTR viability 10 ug/mL = second read-out of total CFTR, no call of its own (marks repeat the call); viability, %; measured here: primary viability 10 ug/mL;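 0% = killed and 100% = untreated cells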
* = called active by the depositor; & = joins results of further samples.

Screening CC(NS(=O)(=O)c1cc(F)ccc1F)c1ccc(-n2ccnc2)cc1 (stereo not drawn) returned total CFTR inactive, total CFTR fold 10 ug/mL 0.95 and total CFTR viability 10 ug/mL 89.
For O=C(Nc1nnc(C2CC2)s1)C1(c2ccccc2)CC1 the results were total CFTR inactive, total CFTR fold 10 ug/mL 0.97 and total CFTR viability 10 ug/mL 97.
`CCC1CCC(O)(C(=O)O)C1` (stereo not drawn) gave total CFTR inactive, total CFTR fold 10 ug/mL 0.91 and total CFTR viability 10 ug/mL 94.
For CCOC(=O)N1CCN(Cn2c(=O)oc3ccccc32)CC1 the results were total CFTR inactive, total CFTR fold 10 ug/mL 0.91 and total CFTR viability 10 ug/mL 91.
CC1CC1c1ccc(/C=C(/C#N)c2nc(N)nc(N(C)C)n2)o1 (stereo not drawn) was read as total CFTR inactive, total CFTR fold 10 ug/mL 1.1 and total CFTR viability 10 ug/mL 99.
COc1ccccc1Nc1nc(N)nc(CSC2=NCCS2)n1 was read as total CFTR inactive, total CFTR fold 10 ug/mL 0.89 and total CFTR viability 10 ug/mL 93.
`CCCCC(=O)Nc1cc(C(N)=O)n(C)c1` gave total CFTR inactive, total CFTR fold 10 ug/mL 0.98 and total CFTR viability 10 ug/mL 101.
For CC(C)N1C(=O)C(=O)N(Cc2cn(-c3ccccc3)nc2-c2ccccc2)C1=O the results were total CFTR inactive, total CFTR fold 10 ug/mL 0.96 and total CFTR viability 10 ug/mL 95.
`CCOc1ccc2nc(SCc3nc4ccccc4s3)[nH]c2c1` gave total CFTR inactive, total CFTR fold 10 ug/mL 1 and total CFTR viability 10 ug/mL 79.
Screening Cc1cc(C)n2nc(SCCN3C(=O)c4ccccc4C3=O)nc2n1 returned total CFTR inactive, total CFTR fold 10 ug/mL 1 and total CFTR viability 10 ug/mL 83.
O=C1/C(=C/c2ccccc2OC(F)F)COc2ccccc21 was read as total CFTR inactive, total CFTR fold 10 ug/mL 0.76 and total CFTR viability 10 ug/mL 60.
Screening O=C1CCc2cc(S(=O)(=O)Nc3cc4c(cc3Cl)OCCCO4)ccc2N1 returned total CFTR inactive, total CFTR fold 10 ug/mL 0.98 and total CFTR viability 10 ug/mL 90.
Screening Cc1c(-c2ccccc2)sc2ncnc(N3CCCC3)c12 returned total CFTR inactive, total CFTR fold 10 ug/mL 1 and total CFTR viability 10 ug/mL 90.
O=C(Nc1ccnn1Cc1cccs1)c1csc(-c2ccco2)n1 was read as total CFTR inactive, total CFTR fold 10 ug/mL 0.93 and total CFTR viability 10 ug/mL 88.
For Cc1cc2oc(=O)cc(CN3C(=O)NC(C)(c4ccccc4Cl)C3=O)c2cc1C (stereo not drawn) the results were total CFTR 1.2, total CFTR fold 10 ug/mL 1.1 and total CFTR viability 10 ug/mL 63.
Screening N#CC1(C(=O)Nc2ccc(OC(F)(F)F)cc2)CCCC1 returned total CFTR inactive, total CFTR fold 10 ug/mL 0.94 and total CFTR viability 10 ug/mL 94.
Screening O=C(NC1CCSc2ccc(F)cc21)N1CCc2ccccc2C1 (stereo not drawn) returned total CFTR inactive, total CFTR fold 10 ug/mL 1 and total CFTR viability 10 ug/mL 80.
For O=S(=O)(NCCc1ccc2c(c1)OCCO2)c1ccc2c(c1)CCC2 the results were total CFTR inactive, total CFTR fold 10 ug/mL 0.9 and total CFTR viability 10 ug/mL 95.
`CN1CCN(S(=O)(=O)c2ccc(SCc3cc(-c4cccs4)on3)nc2)CC1` gave total CFTR inactive, total CFTR fold 10 ug/mL 1.2 and total CFTR viability 10 ug/mL 92.
`O=C(COc1ncnc2ccc(Br)cc12)c1cc(F)ccc1F` gave total CFTR inactive, total CFTR fold 10 ug/mL 1 and total CFTR viability 10 ug/mL 84.

As a working copy, 12 of the compounds above:
`CCC1CCC(O)(C(=O)O)C1` (stereo not drawn) gave total CFTR inactive, total CFTR fold 10 ug/mL 0.91 and total CFTR viability 10 ug/mL 94.
For CCOC(=O)N1CCN(Cn2c(=O)oc3ccccc32)CC1 the results were total CFTR inactive, total CFTR fold 10 ug/mL 0.91 and total CFTR viability 10 ug/mL 91.
CC1CC1c1ccc(/C=C(/C#N)c2nc(N)nc(N(C)C)n2)o1 (stereo not drawn) was read as total CFTR inactive, total CFTR fold 10 ug/mL 1.1 and total CFTR viability 10 ug/mL 99.
COc1ccccc1Nc1nc(N)nc(CSC2=NCCS2)n1 was read as total CFTR inactive, total CFTR fold 10 ug/mL 0.89 and total CFTR viability 10 ug/mL 93.
`CCCCC(=O)Nc1cc(C(N)=O)n(C)c1` gave total CFTR inactive, total CFTR fold 10 ug/mL 0.98 and total CFTR viability 10 ug/mL 101.
For CC(C)N1C(=O)C(=O)N(Cc2cn(-c3ccccc3)nc2-c2ccccc2)C1=O the results were total CFTR inactive, total CFTR fold 10 ug/mL 0.96 and total CFTR viability 10 ug/mL 95.
`CCOc1ccc2nc(SCc3nc4ccccc4s3)[nH]c2c1` gave total CFTR inactive, total CFTR fold 10 ug/mL 1 and total CFTR viability 10 ug/mL 79.
Screening Cc1cc(C)n2nc(SCCN3C(=O)c4ccccc4C3=O)nc2n1 returned total CFTR inactive, total CFTR fold 10 ug/mL 1 and total CFTR viability 10 ug/mL 83.
O=C1/C(=C/c2ccccc2OC(F)F)COc2ccccc21 was read as total CFTR inactive, total CFTR fold 10 ug/mL 0.76 and total CFTR viability 10 ug/mL 60.
Screening O=C1CCc2cc(S(=O)(=O)Nc3cc4c(cc3Cl)OCCCO4)ccc2N1 returned total CFTR inactive, total CFTR fold 10 ug/mL 0.98 and total CFTR viability 10 ug/mL 90.
Screening Cc1c(-c2ccccc2)sc2ncnc(N3CCCC3)c12 returned total CFTR inactive, total CFTR fold 10 ug/mL 1 and total CFTR viability 10 ug/mL 90.
O=C(Nc1ccnn1Cc1cccs1)c1csc(-c2ccco2)n1 was read as total CFTR inactive, total CFTR fold 10 ug/mL 0.93 and total CFTR viability 10 ug/mL 88.

Next part.
CS(=O)(=O)c1ccc(NCCC2=CCCCC2)c(S(C)(=O)=O)c1 was read as total CFTR inactive, total CFTR fold 10 ug/mL 1.1 and total CFTR viability 10 ug/mL 85.
Screening CN(CC(=O)Nc1sc2c(c1C#N)CCC2)C1CCCCC1 returned total CFTR inactive, total CFTR fold 10 ug/mL 1.1 and total CFTR viability 10 ug/mL 98.
O=C(NCCN1CCS(=O)(=O)CC1)C1CCCN(C(=O)c2cccs2)C1 (stereo not drawn) was read as total CFTR inactive, total CFTR fold 10 ug/mL 1.1 and total CFTR viability 10 ug/mL 98.
Screening Cc1ncc([N+](=O)[O-])n1CCO returned total CFTR inactive, total CFTR fold 25 µM 0.98&1.1 and total CFTR viability 25 µM 108&103.
For O=S(=O)(Nc1ccc(-n2cncn2)nc1)c1cccs1 the results were total CFTR inactive, total CFTR fold 10 ug/mL 0.97 and total CFTR viability 10 ug/mL 99.
For Cn1cnn(CN2CCCC(c3nc4ccccc4s3)C2)c1=S (stereo not drawn) the results were total CFTR inactive, total CFTR fold 10 ug/mL 1.1 and total CFTR viability 10 ug/mL 100.
Screening C=CCn1c(C)cc(C(=O)COc2ccc3oc4c(c3c2)CCCC4)c1C returned total CFTR inactive, total CFTR fold 10 ug/mL 0.97 and total CFTR viability 10 ug/mL 84.
`O=C(Nc1nc2c(s1)CCCCC2)C1CC2CCCC(C1)C2=O` (stereo not drawn) gave total CFTR inactive, total CFTR fold 10 ug/mL 0.97 and total CFTR viability 10 ug/mL 78.
For O=C1CC2(CCCC2)C(=O)N1CN1CCCC1c1nc2ccccc2s1 (stereo not drawn) the results were total CFTR inactive, total CFTR fold 10 ug/mL 1 and total CFTR viability 10 ug/mL 100.
For CC(C)(C)NCC(O)COc1cccc2c1CCCC2=O (stereo not drawn) the results were total CFTR inactive, total CFTR fold 25 µM 1 and total CFTR viability 25 µM 94.
COC(=O)CSc1ccc(-n2nc(C)cc2C)nn1 was read as total CFTR inactive, total CFTR fold 10 ug/mL 0.97 and total CFTR viability 10 ug/mL 96.
CC1(C)C(C#N)=C(SCC(=O)N2CCCCCCC2)NC(=O)C1C#N (stereo not drawn) was read as total CFTR inactive, total CFTR fold 10 ug/mL 0.94 and total CFTR viability 10 ug/mL 102.
For Cc1cc2nn(CN(Cc3cccnc3)C(C)C)c(=S)n2c2ccccc12 the results were total CFTR inactive, total CFTR fold 10 ug/mL 1.1 and total CFTR viability 10 ug/mL 77.
CC(C)CCCC(C)N (stereo not drawn) was read as total CFTR inactive, total CFTR fold 25 µM 1.1 and total CFTR viability 25 µM 114.
`O=C(CN1CCCC1c1ccccc1)N1CCc2ccccc21` (stereo not drawn) gave total CFTR inactive, total CFTR fold 10 ug/mL 1.1 and total CFTR viability 10 ug/mL 94.
For CC(C)(C)C(=O)COc1ccc(S(=O)(=O)c2ccc(OCC(=O)C(C)(C)C)cc2)cc1 the results were total CFTR inactive, total CFTR fold 10 ug/mL 0.95 and total CFTR viability 10 ug/mL 94.
CC(C)CC1C(=O)N2CCC[C@H]2C2(O)O[C@](NC(=O)C3C=C4c5cccc6[nH]c(Br)c(c56)C[C@H]4N(C)C3)(C(C)C)C(=O)N12 (stereo partly drawn) was read as total CFTR inactive, total CFTR fold 25 µM 1.1 and total CFTR viability 25 µM 89.
Screening CCCCn1nnnc1CSc1nc2sc3c(c2c(=O)n1CC1CCCO1)CCC(C)C3 (stereo not drawn) returned total CFTR inactive, total CFTR fold 10 ug/mL 1.1 and total CFTR viability 10 ug/mL 91.
Screening O=C1CCc2cc(S(=O)(=O)Nc3ccc4c(c3)OC3(CCCCC3)O4)ccc2N1 returned total CFTR inactive, total CFTR fold 10 ug/mL 0.96 and total CFTR viability 10 ug/mL 90.
O=S(=O)(c1ccc(CN2CCN(S(=O)(=O)N3CCOCC3)CC2)o1)N1CCCC1 was read as total CFTR inactive, total CFTR fold 10 ug/mL 0.92 and total CFTR viability 10 ug/mL 97.
For CN1C(C)(C)CCCC1(C)C the results were total CFTR inactive, total CFTR fold 25 µM 1.1 and total CFTR viability 25 µM 91.
Screening C[Se]CC[C@H](N)C(=O)O returned total CFTR inactive, total CFTR fold 25 µM 0.99 and total CFTR viability 25 µM 97.
For CCOc1cc(CO)ccc1OCCOc1cccc(Br)c1 the results were total CFTR inactive, total CFTR fold 10 ug/mL 1.1 and total CFTR viability 10 ug/mL 92.
`Cc1noc(C)c1CN1CCN(C(=O)c2cc(S(=O)(=O)N3CCCC3)c(C)o2)CC1` gave total CFTR inactive, total CFTR fold 10 ug/mL 0.88 and total CFTR viability 10 ug/mL 92.
`CCCn1nnnc1CN1C(=O)c2cc(Cl)c(Cl)cc2C1=O` gave total CFTR inactive, total CFTR fold 10 ug/mL 1.1 and total CFTR viability 10 ug/mL 88.
Screening O=C(CCc1nc2sc3c(c2c(=O)[nH]1)CCC3)NCCCN1CCOCC1 returned total CFTR inactive, total CFTR fold 10 ug/mL 1.1 and total CFTR viability 10 ug/mL 101.
CN(C(=O)CN1C(=O)COc2ccccc21)C1CCc2ccccc21 (stereo not drawn) was read as total CFTR inactive, total CFTR fold 10 ug/mL 0.98 and total CFTR viability 10 ug/mL 95.
O=[N+]([O-])c1cc(F)ccc1S(=O)(=O)Nc1ccc(F)cc1F was read as total CFTR inactive, total CFTR fold 10 ug/mL 0.98 and total CFTR viability 10 ug/mL 100.
N[C@@H](COP(=O)(O)O)C(=O)O was read as total CFTR inactive, total CFTR fold 25 µM 1.1 and total CFTR viability 25 µM 97.
Screening Cc1cc2cc3c(C)cc(=O)oc3c(C)c2o1 returned total CFTR inactive, total CFTR fold 25 µM 0.92 and total CFTR viability 25 µM 81.
For Cc1nn(C)c(Nc2cccc(Cl)c2Cl)c1Cl the results were total CFTR inactive, total CFTR fold 10 ug/mL 0.88 and total CFTR viability 10 ug/mL 88.
For O=C1C2CCCCC2C(=O)N1CC(O)COCc1ccc2c(c1)OCO2 (stereo not drawn) the results were total CFTR inactive, total CFTR fold 10 ug/mL 1.1 and total CFTR viability 10 ug/mL 99.
Screening O=[N+]([O-])c1cccnc1NCc1cc(Cl)c2c(c1)OCCCO2 returned total CFTR inactive, total CFTR fold 10 ug/mL 0.85 and total CFTR viability 10 ug/mL 103.
O=S(=O)(c1ccc(S(=O)(=O)N(Cc2ccco2)Cc2cccs2)cc1)N1CCOCC1 was read as total CFTR inactive, total CFTR fold 10 ug/mL 1.1 and total CFTR viability 10 ug/mL 102.
`CC(C)C(C)NC(=O)CCc1nc2sc3c(c2c(=O)[nH]1)CCCC3` (stereo not drawn) gave total CFTR inactive, total CFTR fold 10 ug/mL 1 and total CFTR viability 10 ug/mL 80.
CN(CCO)c1ncnc2sc(-c3ccccc3)cc12 was read as total CFTR inactive, total CFTR fold 10 ug/mL 0.96 and total CFTR viability 10 ug/mL 87.
CCN1CCCC(OC(=O)C(c2ccccc2)c2ccccc2)C1 (stereo not drawn) was read as total CFTR inactive, total CFTR fold 25 µM 1 and total CFTR viability 25 µM 100.
Cc1ccc(C(=O)N2CCN(S(=O)(=O)N3CC(C)OC(C)C3)CC2)s1 (stereo not drawn) was read as total CFTR inactive, total CFTR fold 10 ug/mL 1 and total CFTR viability 10 ug/mL 108.
`CCCCN(CCCC)CC(O)COc1ccc(Br)cc1` (stereo not drawn) gave total CFTR inactive, total CFTR fold 10 ug/mL 1 and total CFTR viability 10 ug/mL 102.
For Cc1cc(N2CCOC(C)C2)nc2c(C(C)C)cccc12 (stereo not drawn) the results were total CFTR inactive, total CFTR fold 10 ug/mL 0.92 and total CFTR viability 10 ug/mL 81.

An excerpt; rates above refer to the full screens.
